D2 ag – Beta-Arrestin HTS for Positive Allosteric Modulators of the Human D2 Dopamine Receptor: Agonists; 0.084% of 360,000 active; AID 624465, 2012; DiscoveRx PathHunter D2 beta-arrestin, luminescence, 90 min; 100% = 57 uM dopamine signal; activation, % (no concentration beside the values); in the data active = activation above about 40%; inconclusive = about 15% to 40%; inactive = below about 15%; further: compound concentration not given in the record; the text of the record calls up to 30% inactive
Target sequence (P14416 whole entry, looked up): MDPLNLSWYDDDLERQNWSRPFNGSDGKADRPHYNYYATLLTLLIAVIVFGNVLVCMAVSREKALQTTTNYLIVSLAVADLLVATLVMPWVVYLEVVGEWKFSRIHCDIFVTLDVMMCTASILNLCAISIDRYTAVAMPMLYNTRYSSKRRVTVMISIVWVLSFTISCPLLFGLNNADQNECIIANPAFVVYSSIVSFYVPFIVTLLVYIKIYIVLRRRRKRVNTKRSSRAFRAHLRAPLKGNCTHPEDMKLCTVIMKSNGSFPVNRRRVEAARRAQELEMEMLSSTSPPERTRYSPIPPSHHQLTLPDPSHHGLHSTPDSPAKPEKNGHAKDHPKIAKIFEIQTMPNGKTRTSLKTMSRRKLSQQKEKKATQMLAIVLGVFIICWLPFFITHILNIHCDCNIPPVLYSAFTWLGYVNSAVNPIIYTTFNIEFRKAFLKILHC
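DiscoveRx PathHunter D2 beta-arrestin cells (2,100/well) attached overnight, then compound-stimulated 90 min at 37 C in HBSS/10 mM HEPES/0.1% Tween-20 buffer; beta-galactosidase complementation read by luminescence after 1 h at ambient temperature. Dopamine 57 uM final (EC100) as control.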
Six1-Eya2 inh – qHTS Assay for Inhibitors of the Six1/Eya2 Interaction | AlphaScreen GST-Six1/His-Eya2 binding, biochemical; hits give low values; control for the full effect not named in the record | 0.56% of 360,000 active | activity change, % (test concentration not listed) | Homeobox protein SIX1 (Homo sapiens) + Protein phosphatase EYA2 (Homo sapiens), … | AID 651725, 2012; in the data active = activity change below about -65%; inconclusive = about -30% to -65%; inactive = above about -30%; further: on the % scale 0 is the no-effect control and ±100 the full control effect; compound concentration not given in the record
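GST-Six1 + His-Eya2 (5X stock: 250/500 nM); Tris pH 8.0, 300 mM NaCl, 0.05% BSA, 0.02% Tween 20; GSH donor/Ni acceptor beads; 1 h 37 °C dark; AlphaScreen readout.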
D2 potentiator – Beta-Arrestin HTS for Positive Allosteric Modulators of the Human D2 Dopamine Receptor: Potentiators | 0.23% of 360,000 active | D(2) dopamine receptor (Homo sapiens), P14416 | DiscoveRx D2 beta-arrestin cells, luminescence, 90 min; 100% = 57 uM dopamine signal | potentiation, % (concentration not given with the values); active = potentiation of 50% or more; inconclusive = 30% to 50%; inactive = 30% or less;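 further: compound concentration not given in the record; tested on top of an EC20 dose of dopamine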
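D2 cells co-treated with compound plus 50 nM dopamine (EC20) for 90 min at 37 deg C to detect potentiation. Beta-arrestin recruitment was read as enzyme-fragment luminescence after 1 h at ambient temperature. Full response was set by 57 uM dopamine.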
CtBP-E1A blk – qHTS Assay for Inhibitors of the CtBP/E1A Interaction | activity change, % (test concentration not listed) | CtBP / adenovirus E1A interaction (AlphaScreen) | AlphaScreen GST-E1A/His-CtBP binding, 1536-well; hits give low values; control for the full effect not named in the record | 0.49% of 340,000 active | AID 651724, 2012; in the data active means activity change below about -65%; inconclusive means about -30% to -65%; inactive means above about -30%; further: on the % scale 0 is the no-effect control and ±100 the full control effect; compound concentration not given in the record
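Protein mix (5X: 125 nM each GST-E1A, His-CtBP) was incubated with pinned compound 2 h at 37 deg C in dark, in 50 mM Tris pH 8.0 buffer with 300 mM NaCl. Glutathione donor and nickel acceptor beads followed; AlphaScreen signal read after 1 h.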
PINK1 modulator – A Quantitative High throughput Screen to Identify Chemical Modulators of PINK1 Expression | Potency, µM (doses to about 76.6 µM), inactives show at the highest dose activation (PINK1 increase), most hits filed as activators | 0.2% of 410,000 active | PINK1 immunofluorescence, high-content cytometry, 24 h; active = well fitted activation curve with a large enough effect; inconclusive = small, poorly fitted or top-dose-only effect; inactive = flat fitted curve, though single readings scatter; cell line not stated here;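 further: potency means the concentration at half of the fitted maximal effect; % of control where 0% means no effect; nearly all actives have a fitted effect of over 65% in size; a mitochondrial uncoupler was the plate control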
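Decision-based qHTS: stable cells, 24 h exposure to five compound concentrations, CCCP as control. Fixed cells stained for PINK1 plus nuclear, mitochondrial and cell markers, cytometer read.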
TRPML1 ag – qHTS for Agonists of the Human Mucolipin Transient Receptor Potential 1 (TRPML1). activation, % (test concentration not listed). 0.12% of 410,000 active. TRPML1-expressing cells, Ca2+ dye fluorescence, FDSS; host cell line not named in the record; reference of the full effect not given here; in the data active = activation above about 50%; inconclusive = about 30% to 50%; inactive = below about 30%; further: 0% is about no effect; the text of the record puts the active cut at 80%
Target sequence (Q9GZU1 whole entry, looked up): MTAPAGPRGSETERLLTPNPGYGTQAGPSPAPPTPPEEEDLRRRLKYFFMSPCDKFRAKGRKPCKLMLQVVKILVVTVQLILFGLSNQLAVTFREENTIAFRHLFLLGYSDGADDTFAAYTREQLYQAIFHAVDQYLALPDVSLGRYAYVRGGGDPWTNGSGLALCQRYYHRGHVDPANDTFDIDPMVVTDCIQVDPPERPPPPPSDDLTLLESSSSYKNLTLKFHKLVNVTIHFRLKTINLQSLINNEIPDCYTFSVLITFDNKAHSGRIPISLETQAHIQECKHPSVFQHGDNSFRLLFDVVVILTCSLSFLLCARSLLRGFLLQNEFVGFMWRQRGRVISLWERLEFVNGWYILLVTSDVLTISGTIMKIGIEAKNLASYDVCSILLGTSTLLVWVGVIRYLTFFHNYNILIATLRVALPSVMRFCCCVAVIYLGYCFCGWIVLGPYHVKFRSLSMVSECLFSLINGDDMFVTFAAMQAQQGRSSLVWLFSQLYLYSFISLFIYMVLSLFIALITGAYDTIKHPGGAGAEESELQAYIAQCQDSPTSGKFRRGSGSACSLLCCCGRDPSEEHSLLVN
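In this qHTS format, compounds were pin-transferred onto Ca8-dye-loaded TRPML1-DL cells induced with Tet overnight, and intracellular Ca2+ fluorescence was recorded kinetically for 110 s after a 10 s baseline. A subsequent 4uM final 54-4 (EC80) addition followed by a second 110 s read served as the antagonist phase.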
* = called active by the depositor; ? = inconclusive; nt = no result given; [ ] = dose if it differs, or a comment. Rows were taken by chance, and some 1.3% of all compounds hit somewhere here.

SMILES	D2 ag	Six1-Eya2 inh	D2 potentiator	CtBP-E1A blk	PINK1 modulator	TRPML1 ag
O=C(c1cc2cc(F)ccc2[nH]1)N1CCc2ccccc21	-1.7	-4	-6	-2	-0.1%	-0.3
NC(=O)c1ccc(NC(=O)CN2CCN(S(=O)(=O)c3ccc4ccccc4c3)CC2)cc1	-1.6	-4	0	-8	0.5%	-0.3
CCCCSc1nnc(CSc2ncccn2)n1C	-22	12	7	-2	4.5%	1.5
COc1ccc(NC(=O)CSc2nnc(-c3cccs3)n2C)cc1OC	0.9	1	-8	-1	0.0%	-0.4
N#CCC(=O)Nc1ccc(C(=O)OC(C(=O)Nc2cc(C(F)(F)F)ccc2Cl)c2ccccc2)cc1 (stereo unspecified)	4.7	9	-7	-3	5.3%	0.6
CC1CC(=Cc2ccc(N)cc2)C(=O)O1 (stereo unspecified)	1.5	2	4	1	-0.2%	-0.6
CCOC(=O)c1cnc2ccc(Br)cc2c1NCC(C)O (stereo unspecified)	0.1	7	-6	3	0.1%	0.4
Cc1cc(C)c(C(=O)N(C)C2CCCN(Cc3ccccc3F)C2)o1 (stereo unspecified)	-0.3	-13	-12	-5	-0.3%	0.4
COc1ccc(S(=O)(=O)N(C)C[C@H]2Oc3ccc(NC(=O)Nc4ccc(C(F)(F)F)cc4)cc3C(=O)N([C@H](C)CO)C[C@@H]2C)cc1	2.7	-8	-24	0	-0.4%	0.1
CCCCCC1CC(CC(=O)Nc2ccc([N+](=O)[O-])cc2)C(=O)O1 (stereo unspecified)	1.6	-6	-15	nt	1.0%	1.8
O=C(Nc1ccccc1)c1cc2ccccc2s1	1.5	1	-4	11	9.6%	0.2
O=C(c1cnn2c(C(F)(F)F)cc(-c3ccc4c(c3)OCO4)nc12)N1CCCC1	-2.9	1	-7	3	-6.2%[38.3 µM]	-0.5
CCC1(C(=O)O)NC(c2cc(OC)ccc2O)C2C(=O)N(Cc3ccccc3)C(=O)C21 (stereo unspecified)	-4.6	3	-3	4	0.5%	-0.2
COc1ccc(Oc2coc3cc(OC(=O)c4cccs4)ccc3c2=O)cc1	0.3	-18	-4	-2	8.6%	0.8
COCCNC(=O)c1onc(CSc2cc(C)ccc2C)c1C(=O)O	-3.4	6	-7	2	0.9%	-0.5
Cc1cccc(N2CCN(C(=O)CCN3C(=S)NC(C)(C)CC3C)CC2)c1C (stereo unspecified)	-1.7	-11	-1	-8	-0.5%	0.9
COc1cc(OC)cc(C(=O)Nc2ccc(N3CCOCC3)cc2N2CCOCC2)c1	-2.3	-12	5	nt	5.7%	-0.7
CCOCCc1nnc(NC(=O)CS(=O)(=O)Cc2ccccc2)s1	-2.2	-3	-2	4	-1.6%	0.1
COC(=O)[C@@H](NCc1cccc(CN([C@H](C(=O)OC)C(C)C)S(C)(=O)=O)c1)C(C)C	2.5	3	-10	-3	-0.1%	-0.1
CCNC(=S)Nc1ccc(OCc2nc3ccccc3s2)cc1	-4.0	-18	-12	-2	0.5%	0.9
Cc1ccc(NC(=S)NCc2ccccn2)cc1	-0.6	-6	-6	-6	1.2%	-0.5
C=CCn1c(NC(=O)c2ccc(Br)o2)c(S(=O)(=O)c2ccccc2)c2nc3ccccc3nc21	1.1	-21	-2	?	?	4.6
CN(CC(=O)Nc1ccccc1F)CC(=O)Nc1ccccc1Br	-1.0	-15	-7	14	0.6%	2.7
Cn1c(CO)cnc1SCC(=O)c1ccc(F)cc1	-8.7	-4	-6	-6	-0.5%	0.5
Cc1ccccc1OCC(=O)NCCNC(=O)c1ccncc1	-1.3	6	-3	-7	0.2%	0.3
COc1cc(OC)c(OC)cc1/C=N/NC(=O)c1ccc2nc[nH]c2c1	7.3	-15	1	-23	-0.8%	1.3
CC(=O)NC1C(=O)N=C(SCc2ccccc2)NC1=O (stereo unspecified)	-2.3	3	-15	6	0.0%	-0.3
O=C(Nc1ccccc1F)c1ccc(Br)o1	-0.7	1	-28	-2	-0.1%	-1.0
CCOc1ccc(NC(=S)NC(=O)/C=C/c2ccc(Br)cc2)c([N+](=O)[O-])c1	-0.3	-9	1	-6	6.8%	-0.4
C[C@H](NC(=O)NCc1ccc(F)cc1)C(=O)O	-3.6	10	-6	-9	-0.2%	-0.1
[N-]=[N+]=CC(=O)C(c1ccccc1)(c1ccccc1)c1ccccc1	-1.8	2	-6	-1	2.9%	1.5
Cc1ccc(C(=O)CCC(=O)OCC(=O)N2c3ccccc3NC(=O)C2(C)C)cc1	-0.8	-6	-18	-4	-0.3%	3.5
O=C(CCC1CCCCC1)Nc1ccc(S(=O)(=O)Nc2nccs2)cc1	-0.2	17	3	51	nt	1.1
O=C(COC(=O)c1cc[n+]([O-])cc1)Nc1cccc(Cl)c1Cl	-0.3	-1	-6	-22	0.4%	0.1
Cc1ccc(C(C)C)c(OCC(O)CN2CCN(CCO)CC2)c1 (stereo unspecified)	-0.5	-2	-35	2	-1.5%	-0.8
CC(=O)Nc1ccc(S(=O)(=O)N[C@@H](C)C(=O)Nc2ccc(N3CCOCC3)cc2)cc1	-2.4	8	4	-14	0.7%	-0.7

A different layout for six compounds above:
Structure | D2 ag | Six1-Eya2 inh | D2 potentiator | CtBP-E1A blk | PINK1 modulator | TRPML1 ag
CCOc1ccc(NC(=S)NC(=O)/C=C/c2ccc(Br)cc2)c([N+](=O)[O-])c1 | -0.3 | -9 | 1 | -6 | 6.8% | -0.4
Cc1ccc(C(C)C)c(OCC(O)CN2CCN(CCO)CC2)c1 (stereo unspecified) | -0.5 | -2 | -35 | 2 | -1.5% | -0.8
C[C@H](NC(=O)NCc1ccc(F)cc1)C(=O)O | -3.6 | 10 | -6 | -9 | -0.2% | -0.1
Cc1ccccc1OCC(=O)NCCNC(=O)c1ccncc1 | -1.3 | 6 | -3 | -7 | 0.2% | 0.3
O=C(CCC1CCCCC1)Nc1ccc(S(=O)(=O)Nc2nccs2)cc1 | -0.2 | 17 | 3 | 51 | nt | 1.1
COc1cc(OC)c(OC)cc1/C=N/NC(=O)c1ccc2nc[nH]c2c1 | 7.3 | -15 | 1 | -23 | -0.8% | 1.3

Following part.
SMILES	D2 ag	Six1-Eya2 inh	D2 potentiator	CtBP-E1A blk	PINK1 modulator	TRPML1 ag
O=S(=O)(CCc1ccncc1)c1ccc(Cl)cc1	-1.5	13	-2	7	0.3%	0.5
CCCS(=O)(=O)N1CCCC(C(=O)c2cccc(Cl)c2)C1 (stereo unspecified)	-3.2	-1	-1	-11	0.2%	-0.6
Cc1ccc(NC(=O)C2(C)CCN2C2Cc3ccccc3C2)cc1 (stereo unspecified)	1.9	7	-5	-4	1.4%	-1.0
CCOC(=O)NC(=O)c1cn(-c2ccc(OC)cc2)c(=O)[nH]c1=O	-4.9	15	-7	nt	-1.1%	0.7
CC1(C(=O)NCCc2c[nH]c3ccccc23)CCN1Cc1csc2ccccc12 (stereo unspecified)	-5.1	-4	-17	2	0.7%	-0.5
COc1ccc(CCNC(=O)C2CC(=O)N(c3ccc(F)cc3)C2)cc1OC (stereo unspecified)	-1.8	5	-3	2	-0.4%[38.3 µM]	0.8
O=C(NCCN1CCCCC1)c1cc(OCC(F)(F)F)ccc1OCC(F)(F)F	-1.4	1	-20	0	-0.4%	-0.5
COc1cc(C(=O)NCCC(=O)NCc2cccs2)cc(OC)c1OC	-2.7	-3	-4	-3	1.6%	-0.3
C[C@H](NC(=O)[C@H]1N2C(=O)c3ccccc3C2SC1(C)C)C(=O)N1CCC[C@H]1CO (stereo partly specified)	-5.2	5	-31	13	-0.2%	nt
CC(C)(C)CC(=O)Nc1nnc(C(F)(F)F)s1	2.0	9	-11	-1	3.2%	0.7
Cc1c(Cl)cccc1NC(=S)N1CCc2ccccc2C1	-4.0	-4	-2	-24	2.9%	-0.2
C#CC(C)(C)NC(=O)c1sccc1Oc1ccc(F)cc1[N+](=O)[O-]	1.5	-5	-5	-3	-0.3%	-0.6
CCOC(=O)CCCCC1C(CCCC(=O)OCC)C=NN1C (stereo unspecified)	-3.6	37	-10	4	-4.2%	2.3
CN(CCO)c1ccc2c(c1)OC[C@H](Cc1ccccc1)NS2(=O)=O	nt	5	nt	0	1.2%	0.1
Cc1ccc(S(=O)(=O)N2[C@@H](c3cccc(C)c3)C(C(=O)O)=C[C@H]2C(C)(C)C)cc1	-1.7	1	-3	-1	-0.4%	2.3
CCOC(=O)C(C)/C(C)=N\Nc1ccc([N+](=O)[O-])cc1[N+](=O)[O-] (stereo unspecified)	14	?	9	-27	0.1%	0.8
COc1ccc(CNC(=O)c2ccc(Cl)c(S(=O)(=O)N3CCCCCC3)c2)cc1	-2.8	2	-13	2	0.0%	-0.7
COCCn1c(SC(C)C(=O)Nc2ccc(Cl)cn2)nnc1-c1ccncc1 (stereo unspecified)	0.8	3	-2	-19	1.2%	-0.7
O=C(Nc1ccc(Cl)c(C(F)(F)F)c1)c1ccco1	0.3	12	-13	6	2.9%	0.8
CCOC(=O)C1(CCCc2ccccc2)CCN(Cc2cnc(C)s2)CC1	-0.4	-8	-16	0	3.1%	1.6
Clc1ccccc1NN(Cc1ccccn1)c1ccccc1Cl	-11	-2	-10	-1	?	2.1
CCCOCCOC(=O)C1=C(C)NC(=O)NC1c1cc(Cl)c(O)c(OC)c1 (stereo unspecified)	2.0	-1	1	-5	nt	0.5
Cc1cc(C)n(CC(C)NCc2cn[nH]c2-c2cccc3ccccc23)n1 (stereo unspecified)	-3.5	-1	-17	-5	0.5%	-0.1
COc1ccc(-c2nc(CS(=O)(=O)CC(=O)NCc3ccc4c(c3)OCO4)c(C)o2)cc1	-1.6	1	-6	1	0.8%	1.8
CC(C)Nc1nc2cccnc2s1	1.0	0	-11	7	1.9%	0.1
O=C(CN1C(=O)c2ccccc2S1(=O)=O)c1ccc(O)c(O)c1	1.9	-13	2	-12	1.0%	3.1
O=C(NCC1CCCCC1)c1ccc(Cl)nc1	-1.2	-2	-2	1	2.7%	-0.2
C=CCc1c(C)nc(SCC(=C)C)[nH]c1=O	-0.4	1	-2	1	0.7%[38.3 µM]	-0.6
CC1(C(=O)Nc2cccc(C#N)c2)CCN1C(=O)CCc1ccccc1 (stereo unspecified)	-5.3	-4	-5	5	-0.8%	0.1
O=C(NC(O)C(=O)c1ccc(F)cc1)c1ccc(F)cc1 (stereo unspecified)	6.2	-4	-8	nt	0.8%	-1.1
O=C1NC(c2ccc(F)cc2)Oc2ccccc21 (stereo unspecified)	-0.7	-8	-5	nt	-0.7%	nt
Cc1ccc(-n2c(C)cc(C(=O)OCC(=O)N(CC(C)C)C3CCS(=O)(=O)C3)c2C)cc1 (stereo unspecified)	-2.7	-12	-15	1	-2.4%	0.3
